# Menin-MLL FL inh: menin-MLL binding inhibition, fluorescein peptide. AID 1766. FP activity change, % at 61.4 µM. 290,000 tested, under 10 active. Fluorescence polarization, fluorescein-MLL peptide displacement from menin; inconclusive = falling polarisation curve, or a change in total fluorescence; inactive = total fluorescence flat and polarisation flat or rising; no compound was filed as active; the % refers to the polarisation; negative = inhibition;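 note: % of control where 0% means no effect; inhibitors lower the polarisation; unlabelled MLL peptide was the positive control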
# TRPV1 potentiator: potentiators of human vanilloid receptor 1 (TRPV1); potentiation, % at 8.33 µM; 320,000 compounds, 0.02% hits; TRPV1-expressing cells, Fluo-8 calcium influx, capsaicin EC20 potentiation; host cell line not named in the record; control for the full effect not named in the record; active means potentiation above 80%; inconclusive means 30% to 80%; inactive means below 30%; note: 0% is about no effect
# Target sequence (Q8NER1 whole entry, looked up): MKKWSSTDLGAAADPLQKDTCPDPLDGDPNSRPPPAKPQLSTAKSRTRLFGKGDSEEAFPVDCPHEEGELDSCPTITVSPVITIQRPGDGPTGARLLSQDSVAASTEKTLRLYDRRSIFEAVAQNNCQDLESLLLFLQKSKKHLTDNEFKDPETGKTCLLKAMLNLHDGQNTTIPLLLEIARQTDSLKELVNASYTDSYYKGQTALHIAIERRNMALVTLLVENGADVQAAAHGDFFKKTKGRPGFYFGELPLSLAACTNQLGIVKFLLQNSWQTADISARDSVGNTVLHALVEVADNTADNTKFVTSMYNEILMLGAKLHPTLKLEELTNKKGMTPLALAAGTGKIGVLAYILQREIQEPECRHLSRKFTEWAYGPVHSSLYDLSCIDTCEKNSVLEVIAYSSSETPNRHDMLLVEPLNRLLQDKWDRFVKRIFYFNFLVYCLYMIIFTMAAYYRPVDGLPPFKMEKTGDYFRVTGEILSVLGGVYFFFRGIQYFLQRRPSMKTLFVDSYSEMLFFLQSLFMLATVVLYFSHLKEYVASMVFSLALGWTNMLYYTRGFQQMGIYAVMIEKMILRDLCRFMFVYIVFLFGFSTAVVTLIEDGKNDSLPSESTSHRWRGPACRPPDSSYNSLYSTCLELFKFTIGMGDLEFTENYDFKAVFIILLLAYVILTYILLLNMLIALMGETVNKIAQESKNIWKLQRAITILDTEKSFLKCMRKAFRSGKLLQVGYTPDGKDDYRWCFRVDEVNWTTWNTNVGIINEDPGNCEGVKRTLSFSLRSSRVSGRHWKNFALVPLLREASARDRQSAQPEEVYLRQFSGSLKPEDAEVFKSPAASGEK
#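 Cells expressing TRPV1 were dye-loaded with Fluo-8 and read kinetically: 10 s baseline, 3 min after compound (agonist portion), then 2 min after EC20 capsaicin (allosteric enhancer portion). Calcium-bound dye fluorescence at 480/520 nm.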
# Sfp PPTase inh: inhibitors of Bacillus subtilis Sfp phosphopantetheinyl transferase; Q9F4F7; Biochemical Sfp PPTase activity, qHTS; Potency, µM, for inactives: max response, negative = inhibition, actives largely listed as inhibitors; 310,000 compounds, 3.5% hits; AID 1490; active = well fitted inhibition curve with a large enough effect; inconclusive = small, poorly fitted or top-dose-only effect, or another doubt; inactive = no such curve, though single readings can be large or run the other way;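 note: the enzyme is Sfp with the accession as filed and its product quenches rhodamine fluorescence; potency is the fitted concentration of half-maximal effect; 0% = enzyme reaction without inhibitor and -100% = no enzyme wells; top concentration of the series not given in the record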
#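 Sfp 15 nM + cpd, 15 min RT; start w/ rhodamine-CoA 5 uM, BHQ-2-YbbR 12.5 uM (final); 50 mM Hepes pH 7.6, 10 mM MgCl2, 0.01% NP-40, 0.01% BSA; read 525/598 nm at 0 and 30 min.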
# gsp antag: antagonists of gsp mutant (McCune-Albright syndrome) | AID 624288 | Potency, µM (top dose mostly 76.9 µM), for the others: at the highest dose activity change, negative = inhibition, usual class: inhibitors | 340,000 compounds, 0.4% hits | gsp-mutant cells, cAMP HTRF, 30 min; control for the full effect not named in the record; active = falling curve of any shape with a large fitted effect; inconclusive = falling curve, mostly with a smaller effect; inactive = flat or rising curve; cell line not stated here;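 note: intracellular cAMP measured with PDE inhibitor Ro 20-1724 present during compound exposure; potency is the fitted concentration of half-maximal effect; % is set by controls: 0 for no effect and ±100 for the full control effect; nearly all actives have a fitted effect of over 65% in size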
#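 Cells, 2000/well, grown 16–24 h in DMEM 10% FBS with 0.5 mg/ml G418, then compounds plus […] (300 uM addition stock), 30 min at 37C. cAMP read by HTRF (cAMP-d2 and anti-cAMP antibody-K in lysis buffer) after 30 min RT.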
# ClpP mod: qHTS Assay for Activators of ClpP; ATP-dependent Clp protease proteolytic subunit (Bacillus subtilis (strain 168)), P80244; 340,000 compounds, 1.9% hits; Potency, µM (series often up to 57.5 µM), inactives show at the top dose activity change, negative = active; purified B. subtilis ClpP, FRET peptide cleavage, 20 min; active = well fitted falling curve with a large enough effect; inconclusive = small, poorly fitted or top-dose-only effect; inactive = no such curve, though single readings can be large or run the other way; note: potency is the fitted concentration of half-maximal effect; the source files actives as falling curves though it sought activators and does not explain the sign; nearly all actives have a fitted effect of over 65% in size; many hits overshoot -100%
# Target sequence (P80244 whole entry, looked up): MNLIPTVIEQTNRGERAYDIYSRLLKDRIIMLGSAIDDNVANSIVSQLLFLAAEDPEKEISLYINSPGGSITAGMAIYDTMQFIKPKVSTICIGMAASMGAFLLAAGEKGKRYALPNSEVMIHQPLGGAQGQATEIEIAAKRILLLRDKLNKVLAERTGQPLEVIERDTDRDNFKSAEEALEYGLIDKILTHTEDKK
#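 ClpP 10 microg/mL final, pH 8 Tris/KCl buffer with BSA, glycerol, Tween-20; compound pinned in; FRET-FV substrate; RT 20 min; Ex320/Em430; ΔFRET vs ADEP 5.8 microM, DMSO, no enzyme.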
# gsp agonist: agonists of gsp mutant (McCune-Albright syndrome). AID 624287. Potency, µM (titrated, usually from 76.9 µM), inactives show at the top dose activation (cAMP increase), actives largely listed as activators. 340,000 compounds, 0.13% hits. gsp mutant cells, cAMP HTRF, 30 min; control for the full effect not named in the record; active = well fitted activation curve with a large enough effect; inconclusive = small, poorly fitted or top-dose-only effect, or another doubt; inactive = no such curve, though single readings can be large or run the other way; cell line not stated here;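 note: phosphodiesterase inhibitor Ro 20-1724 added with compounds to block cAMP breakdown; potency is the fitted concentration of half-maximal effect; nearly all actives have a fitted effect of over 60% in size; about a fifth of the inactives were tested at one dose only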
#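 Cells in DMEM/10% FBS with G418 were pretreated with compounds in DMSO plus […] (300 uM stock) for 30 min at 37C. cAMP was measured by HTRF (cAMP-d2 plus anti-cAMP antibody-K) after 30 min at room temperature.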
# CtBP-E1A inh: blocks the CtBP interaction with E1A; AlphaScreen GST-E1A/His-CtBP binding, 1536-well; stronger effect = lower value; control for the full effect not named in the record; activity change, % (concentration not given with the values); 340,000 compounds, 0.49% hits; in the data active means activity change below about -65%; inconclusive means about -30% to -65%; inactive means above about -30%; note: % is set by controls: 0 for no effect and ±100 for the full control effect
#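 Homogeneous bead-based format: GST-tagged E1A captured on glutathione donor beads, His-tagged CtBP on nickel acceptor beads; compounds precede bead addition by 2 h at 37 °C.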
# Active calls of the source: *; ? = inconclusive; · = no result given; & = joins results of further samples; [ ] = dose if it differs, or a comment.
SMILES,Menin-MLL FL inh,TRPV1 potentiator,Sfp PPTase inh,gsp antag,ClpP mod,gsp agonist,CtBP-E1A inh
CCN(CC)S(=O)(=O)c1ccc(C)c(NC(=O)CNCc2ccccc2OC)c1,-2.1,-24.5,?,8.3%,·,-39.1%[inhibitor][15.4 µM],4.3
O=C(NC1CCN(C(=O)NCc2ccccc2)CC1)c1ccccc1,-1.0,-7.2,8.0%,2.3%,·,-26.0%,6.1
COc1ccc(NC(=O)CN(c2ccc(OC)cc2)S(=O)(=O)c2c(C)nn(C)c2C)cc1,·,3.8,1.7%,-12.5%,-3.4%,?,0.0
Cn1cncc1C#Cc1c(C=O)[nH]c2ccccc12,·,0.1,·,-4.2%,-0.9%,?,-6.9
CC(C)Cc1nnc(NC(=O)CCC(=O)N2CC(C)CC(C)C2)s1 (stereo not given),0.0,-5.3,13.0%,-8.0%,1.0%,6.0%,·
Cc1ccc(OCCn2c(CCCO)nc3ccccc32)cc1,6.3,16.2,-7.4%,9.1%,1.0%,?,0.9
CCN(CC)CCCN1C=C2C(=O)C(C)(OC(=O)C3CCCC3)C(=O)C=C2C=C1c1ccsc1 (stereo not given),?,?,4.7%&-4.6%,-2.2%,-3.2%,2.1%,-3.7
O=C(N/N=C/c1cccnc1)C1CCCN(S(=O)(=O)c2ccccc2)C1 (stereo not given),1.6,1.4,18.1%,6.5%,-0.3%,-18.8%,3.9
NC(=O)c1oc2ccccc2c1NC(=O)c1nc2ccccc2s1,0.6,6.1,-1.7%,-8.8%,-5.7%,?,-0.3
Cc1ccsc1C(=O)OCC(=O)c1cc2ccccc2o1,11.0,-8.3,-10.5%,-10.5%,-3.5%,-30.6%[inhibitor],30.0
CCc1ccc2c(c1)/C(=C/C(=O)c1cccs1)C(=O)N2,-0.8,-8.9,44.7µM*,11.6%,0.3%,-3.5%,-1.3
CC1NC(=O)c2cc3ccccc3cc2-n2c1nc1cc(F)ccc1c2=O (stereo not given),·,·,·,·,-4.0%,-39.3%[inhibitor],0.0
CCOC(=O)N1CCN(C(=O)CN(C)S(=O)(=O)c2ccc3c(c2)c(=O)n(C)c(=O)n3C)CC1,-2.8,9.4,10.7%,12.4%,·,16.7%,-7.8
Cc1ccc(NC(=O)c2ccc([N+](=O)[O-])o2)cc1S(=O)(=O)N1CCOCC1,0.6,-4.0,15.1%,4.1%,·,-4.2%,-13.1
O=C(Nc1ccccc1)O/N=C1\CCCCC1c1ccc([N+](=O)[O-])cc1[N+](=O)[O-] (stereo not given),1.1,·,-6.2%,-13.5%,0.7%,-1.3%,?
FC(F)(F)c1ccc2nnc(-c3c(Cl)cccc3Cl)n2c1,-1.5,3.7,10.2%,-14.3%,-9.4%,4.1%,-0.4
COc1ccc(NC(=O)CN(C)S(=O)(=O)c2cccc3cccnc23)cc1,-0.9,-1.0,2.2%,-12.7%,-0.8%,-29.3%,-2.2
COc1cc(-c2nc(CN3CCN(CC(C)C)C(=O)[C@@H]3C)c(C)o2)ccc1F,0.1,2.7,3.0%,-3.4%,·,-39.3%[inhibitor],-9.9
Cn1c(Cc2ccccc2)nnc1SCC(=O)Nc1ccc(N2CCOCC2)cc1,1.6,-10.4,-6.2%,5.4%,-0.8%,-2.1%[15.4 µM],-3.0
Cc1cc(NS(=O)(=O)c2ccc(NC(=O)CSc3nc4sc(C)c(C)c4c(=O)[nH]3)cc2)no1,0.6,-2.2,-5.5%,7.3%,-1.1%,26.2%,·

# By substructure, the compounds so far with an NH in an aromatic ring
SMILES,Menin-MLL FL inh,TRPV1 potentiator,Sfp PPTase inh,gsp antag,ClpP mod,gsp agonist,CtBP-E1A inh
Cn1cncc1C#Cc1c(C=O)[nH]c2ccccc12,·,0.1,·,-4.2%,-0.9%,?,-6.9
Cc1cc(NS(=O)(=O)c2ccc(NC(=O)CSc3nc4sc(C)c(C)c4c(=O)[nH]3)cc2)no1,0.6,-2.2,-5.5%,7.3%,-1.1%,26.2%,·

# Carrying on:
SMILES,Menin-MLL FL inh,TRPV1 potentiator,Sfp PPTase inh,gsp antag,ClpP mod,gsp agonist,CtBP-E1A inh
Cc1cc(C(=O)N/N=C/c2ccc([N+](=O)[O-])s2)n[nH]1,4.1,-21.9,-3.6%,-5.6%,·,?,?
c1ccc(Cc2nc3ccccc3n2Cc2ccccc2)cc1,0.8,-18.9,-10.9%,-36.6%,-1.6%,-28.4%,-0.2
NNC(=O)c1ccc(Cn2cc(Cl)cn2)cc1,9.4,-6.2,3.5%,-5.9%,-1.7%,21.1%,-5.0
COc1ccc(NC(=O)Nc2ccc3c(c2)C(=O)N([C@H](C)CO)C[C@H](C)[C@@H](CN(C)S(C)(=O)=O)O3)cc1,·,·,·,1.2%,3.0%,·,5.4
CC1(C)CC(=O)C(CC2CCCCC2=O)C(=O)C1 (stereo not given),-2.7,-1.8,12.0%,1.4%,·,-46.2%[inhibitor][15.4 µM],-3.4
O=C(CSc1n[nH]c(-c2ccncc2)n1)c1ccccc1,0.7,-2.3,7.6%,-4.9%,0.0%,-10.2%,15.5
CC[C@]12c3[nH]c4ccc(OC)cc4c3CCN1C(=O)C(CC(=O)NCc1ccc(OC)c(OC)c1)C[C@@H]2C(=O)N1CCN(C(=O)C2CC2)CC1 (stereo not given in full),·,·,·,-0.7%,0.6%,·,-1.6
O=[N+]([O-])c1ccc(Nc2ccc(N3CCOCC3)cc2)c([N+](=O)[O-])c1,-4.8,-18.3,-15.7%,?,·,2.7%[15.4 µM],-1.6
C=CCC(C#Cc1ccccc1)N(C)C (stereo not given),1.3,0.6,7.5%,6.6%,-0.5%,-43.8%[inhibitor],-3.7
Cc1ccc(S(=O)(=O)N(C)CC(=O)OCC(=O)N2CCCC2=O)cc1,0.3,-10.2,10.4%,8.4%,0.5%,6.0%[15.4 µM],7.1
COc1ccc(CCNC(=O)C(=O)NCCOc2ccccc2)cc1OC,6.3,10.3,-3.4%,2.6%,-0.5%,0.9%,4.8
COc1ccc(CCNC(=O)c2cccc(S(=O)(=O)N3CCCC3)c2)cc1OC,·,-7.2,·,2.5%,1.1%,?,0.5
Cc1ccc(CSc2nnc([C@@H]3CCCN3C(=O)OC(C)(C)C)o2)cc1,4.6,-16.5,9.6%,-2.3%,1.6%,?,7.3
O=C1NC[C@H](Cc2ccccc2)N(CC2CCN(CCCCc3ccccc3)CC2)C1=O,·,·,·,3.3%,0.3%,·,-0.7
CN(Cc1cn(C)nc1-c1ccccc1F)C1CCOC1 (stereo not given),-0.1,-5.1,2.8%,0.7%,·,-2.6%[15.4 µM],12.0
CCC(=O)Nn1cnc2c(c1=O)C1(CCCCC1)Cc1ccccc1-2,1.1,-21.4,8.8%,-7.3%,-1.3%,1.2%,3.4
O=C(COC(=O)c1ccc([N+](=O)[O-])s1)Nc1cccc(S(=O)(=O)NC2=NCCCCC2)c1,4.3,-10.4,-8.5%,1.5%,-1.0%,?,-8.7
CCCOc1ccc(C(=O)Nc2cc(S(=O)(=O)N3CCOCC3)ccc2N2CCOCC2)cc1,·,-2.5,·,-45.4%,0.0%,-35.9%[inhibitor],1.4
O=c1cnn(-c2ccc(Cl)cc2Cl)c(-c2ccccc2)c1,0.4,-15.7,21.9%,-13.1%,-1.1%,16.0%[15.4 µM],3.6
O=[N+]([O-])c1ccc(NC(=S)NCCc2ccccc2)cc1,2.5,-7.0,-18.3%,-20.7%,·,-5.1%[15.4 µM],-9.2

# Some of these compounds in order of the CtBP-E1A inh value, largest number first.
smiles | CtBP-E1A inh
Cc1ccc(CSc2nnc([C@@H]3CCCN3C(=O)OC(C)(C)C)o2)cc1 | 7.3
COc1ccc(CCNC(=O)c2cccc(S(=O)(=O)N3CCCC3)c2)cc1OC | 0.5
O=C1NC[C@H](Cc2ccccc2)N(CC2CCN(CCCCc3ccccc3)CC2)C1=O | -0.7
CC1(C)CC(=O)C(CC2CCCCC2=O)C(=O)C1 (stereo not given) | -3.4
O=C(COC(=O)c1ccc([N+](=O)[O-])s1)Nc1cccc(S(=O)(=O)NC2=NCCCCC2)c1 | -8.7

# Next entries.
SMILES,Menin-MLL FL inh,TRPV1 potentiator,Sfp PPTase inh,gsp antag,ClpP mod,gsp agonist,CtBP-E1A inh
C=CCn1c(=NC(=O)c2cccs2)sc2cccc(OC)c21,0.3,-9.0,-14.4%,-13.4%,·,4.4%[15.4 µM],26.9
O=C(NCc1ccc(F)cc1)c1cccc2c1C(=O)c1ccc(N3CCC(Cc4ccccc4)CC3)cc1S2(=O)=O,·,·,·,1.2%,0.2%,24.5%,13.6
Cc1ccc(CN2C(=O)C3CCCN3c3ccc(C#N)cc32)cc1 (stereo not given),8.4,11.8,4.3%,·,·,·,·
COc1ccc(C)c(NC(=O)NCCc2cnc[nH]2)c1,-2.0,21.4,-5.0%,7.1%,·,-4.4%,-4.3
O=C(NCC1CCN(Cc2cccc(Cl)c2)CC1)C1CCCN(c2ncnc3c2nc2n3CCCCC2)C1 (stereo not given),-4.6,-8.3,-5.9%,6.8%,4.6%,?,-4.2
O=c1nc(N2CCCC2)nc(Nc2ccccc2)[nH]1,7.9,13.1,8.5%,7.0%,-0.9%,-5.9%[15.4 µM],-1.2
CCOC(=O)C1=C(C)NC2=C(C(=O)C(C(=O)OCC)C(c3ccccc3OC)C2)C1c1ccccn1 (stereo not given),-0.5,-14.5,1.1%,-14.3%,?,27.0%,16.7
CCC(c1ccccc1)c1nnc(NC(=O)c2ccco2)s1 (stereo not given),-0.2,7.5,10.2%,2.8%,-1.1%,-10.1%,·
Cc1ccc(NC(=O)CCC(=O)NNC(=O)NC2CCCCC2)c(C)c1,-2.4,-1.0,4.1%,-2.8%,·,-27.8%,-16.7
COc1ccc(CCNC(=O)COC(=O)/C=C/c2cc(OC)c(OC)c(OC)c2)cc1OC,-3.5,3.3,4.9%,-6.4%,?,-6.1%,·
Cc1ccccc1OCC(=O)NNC(=O)C1CCCCC1C(=O)O (stereo not given),1.5,10.4,-6.5%,12.0%,1.8%,21.5%,0.1
Cc1ccc2cccc(OCC(=O)NCCC3=CCCCC3)c2n1,·,·,·,-3.8%,-18.5%,-32.8%[inhibitor],-5.2
